# Vaccinia stage – blocks a specific stage of Vaccinia orthopoxvirus infection, primary screen, cell-based, single point; 0.01% of 89,000 active; activity change (mCherry), % (no concentration beside the values); Vaccinia-infected cells, mCherry/Venus stage reporter fluorescence; hits give low values; some inactives read as strong as hits;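 active means mCherry past -33% and 40 or more points under the early reporter, replicates agreeing; inconclusive means past -33% without that gap or agreement; tested in A549 cells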;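 further: scaled between vehicle wells and reference inhibitor wells; 23 nL library stock went into each well; one replicate is shown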
# Vaccinia stage Venus – also measured in Vaccinia stage; calls as there; activity change (Venus), %; measured here: Venus reporter, other viral stage;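 negative = less Venus signal; first of two replicates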
# Active calls of the source: *; u = inconclusive; x = not tested or not shown; & = joins results of further samples. These rows are one share of the data; the hit share may differ from the screen's.
No. | Molecule | Vaccinia stage | Vaccinia stage Venus
1 | Cc1cccc(S(=O)(=O)N2C[C@H](O)COC[C@@H]3O[C@@H](CC(=O)NCc4ccc5c(c4)OCO5)CC[C@H]32)c1 | 0 | 8
2 | CCCNC(=O)N1C[C@@H]2[C@H](c3ccccc31)[C@@H](CO)N2Cc1ccccc1F | 6 | 11
3 | C[C@H](CO)N1C[C@H](C)[C@H](CN(C)Cc2ccc(C(=O)O)cc2)Oc2c(NS(=O)(=O)c3cccs3)cccc2C1=O | 15 | 10
4 | O=C(C[C@@H]1CC[C@@H]2[C@H](COC[C@H](O)CN2C(=O)c2ccccc2F)O1)NCc1ccc(Cl)c(Cl)c1 | -8 | 10
5 | COc1ccc(S(=O)(=O)Nc2ccc3c(c2)C(=O)N([C@@H](C)CO)C[C@H](C)[C@H](CN(C)Cc2ccc(-c4ccccc4)cc2)O3)cc1 | 1 | 4
6 | C[C@@H]1CCCCO[C@H](CN(C)S(=O)(=O)c2ccccc2)[C@@H](C)CN([C@@H](C)CO)C(=O)c2cc(NC(=O)CCC(F)(F)F)ccc2O1 | 24 | 9
7 | C[C@H](CO)N1C[C@H](C)[C@H](CN(C)S(=O)(=O)c2ccc(Cl)cc2)Oc2ccc(NC(=O)Nc3ccc(C(F)(F)F)cc3)cc2C1=O | -30 | -20
8 | C[C@@H]1CN([C@@H](C)CO)C(=O)c2cc(/C=C/c3ccccc3)cnc2O[C@H]1CN(C)C(=O)c1ccncc1 | 16 | -1
9 | CNC(=O)C[C@@H]1CC[C@H]2[C@@H](COc3ccc(NC(=O)Nc4cccc(C)c4)cc3C(=O)N2C)O1 | 20 | 14
10 | CCNC(=O)C[C@@H]1CC[C@H]2[C@@H](COC[C@H](O)CN2C(=O)Nc2ccc(Cl)c(Cl)c2)O1 | 7 | 2
11 | COc1ccccc1NC(=O)N1CCCCN2[C@H](CO)[C@H](c3ccc(C#Cc4ccccc4)cc3)[C@H]2C1 | u | x
12 | O=C(Nc1ccc2c(c1)[C@@H]1C[C@@H](CC(=O)N3CCCCC3)O[C@@H](CO)[C@@H]1O2)c1ccc2c(c1)OCO2 | 7 | 7
13 | CN1C(=O)c2cc(NC(=O)C3CC3)ccc2OC[C@@H]2O[C@@H](CC(=O)NCCc3ccncc3)CC[C@@H]21 | 8 | 4
14 | O=C(C1CCCCC1)N1[C@H](CO)[C@H]2c3ccccc3N(S(=O)(=O)c3ccccc3)C[C@H]21 | -6 | -2
15 | CCCNC(=O)[C@H]1[C@H](CO)[C@H]2Cn3c(cccc3=O)[C@H]2N1Cc1ccccc1Cl | 24 | 19

# (further entries)
No. | Molecule | Vaccinia stage | Vaccinia stage Venus
16 | CO[C@H]1CN(C)C(=O)c2cc(NC(=O)NC(C)C)ccc2OC[C@H](C)N(Cc2ccccn2)C[C@@H]1C | 10 | 7
17 | CCC(=O)N[C@H]1C=C[C@@H](CC(=O)NCC2CCCCC2)O[C@@H]1CO | -5 | -6
18 | CN1CCN(C(=O)C[C@@H]2C[C@@H]3c4cc(NC(=O)Nc5ccc(C(F)(F)F)cc5)ccc4O[C@@H]3[C@@H](CO)O2)CC1 | -31 | -25
19 | CO[C@@H]1CN(C)C(=O)c2ccc(NS(=O)(=O)c3cn(C)cn3)cc2OC[C@@H](C)N(Cc2cccc(C(F)(F)F)c2)C[C@H]1C | -31 | -14
20 | C[C@@H]1CN([C@H](C)CO)C(=O)c2cc(-c3ccc(F)cc3)cnc2O[C@H]1CN(C)CC1CCOCC1 | -5 | -2
21 | O=C(NCCc1ccncc1)[C@@H]1[C@@H](CO)[C@@H]2Cn3c(ccc(-c4ccncc4)c3=O)[C@@H]2N1C(=O)C1CC1 | 10 | 8
22 | C[C@H](O)C#Cc1ccc2c(c1)O[C@H](CN(C)C(=O)CC1CC1)[C@@H](C)CN([C@@H](C)CO)S2(=O)=O | 3 | 7
23 | O=C(C[C@@H]1C=C[C@@H](NC(=O)C2CC2)[C@H](CO)O1)Nc1ccccc1 | 0 | 1
24 | C[C@H](CO)N1C[C@H](C)[C@H](CN(C)Cc2ccccc2)Oc2ccc(NC(=O)c3ccncc3)cc2CC1=O | 14 | 6
25 | Cc1noc(C)c1S(=O)(=O)N(C)C[C@@H]1Oc2ccc(NS(=O)(=O)c3cn(C)cn3)cc2CC(=O)N([C@H](C)CO)C[C@H]1C | 6 | 11
26 | O=C(C1CCCC1)N1[C@@H](CO)[C@@H](c2ccccc2)C12CN(CCC(F)(F)F)C2 | -1 | 3
27 | COc1ccc(CN(C)C[C@@H]2OCCCC[C@H](C)Oc3ccc(NS(=O)(=O)c4ccc(F)cc4)cc3C(=O)N([C@@H](C)CO)C[C@H]2C)cc1 | u | x
28 | CO[C@H](CN(C)S(=O)(=O)c1ccc(C)cc1)[C@@H](C)CN(C(=O)Nc1ccccc1F)[C@@H](C)CO | 3 | 10
29 | C[C@H]1CN([C@@H](C)CO)C(=O)c2cc(C#CC3CCCC3)cnc2O[C@H]1CN(C)C(=O)Cc1ccccn1 | 10&6 | 4&2
30 | COc1ccc(S(=O)(=O)Nc2ccc3c(c2)CC(=O)N([C@H](C)CO)C[C@@H](C)[C@H](CN(C)C(=O)Nc2ccccc2)O3)cc1 | 17 | 8

# The last 7 records of the part above are carried over, then new ones follow.
# Values run as follows: Vaccinia stage	Vaccinia stage Venus
24) C[C@H](CO)N1C[C@H](C)[C@H](CN(C)Cc2ccccc2)Oc2ccc(NC(=O)c3ccncc3)cc2CC1=O
→ 14	6
25) Cc1noc(C)c1S(=O)(=O)N(C)C[C@@H]1Oc2ccc(NS(=O)(=O)c3cn(C)cn3)cc2CC(=O)N([C@H](C)CO)C[C@H]1C
→ 6	11
26) O=C(C1CCCC1)N1[C@@H](CO)[C@@H](c2ccccc2)C12CN(CCC(F)(F)F)C2
→ -1	3
27) COc1ccc(CN(C)C[C@@H]2OCCCC[C@H](C)Oc3ccc(NS(=O)(=O)c4ccc(F)cc4)cc3C(=O)N([C@@H](C)CO)C[C@H]2C)cc1
→ u	x
28) CO[C@H](CN(C)S(=O)(=O)c1ccc(C)cc1)[C@@H](C)CN(C(=O)Nc1ccccc1F)[C@@H](C)CO
→ 3	10
29) C[C@H]1CN([C@@H](C)CO)C(=O)c2cc(C#CC3CCCC3)cnc2O[C@H]1CN(C)C(=O)Cc1ccccn1
→ 10&6	4&2
30) COc1ccc(S(=O)(=O)Nc2ccc3c(c2)CC(=O)N([C@H](C)CO)C[C@@H](C)[C@H](CN(C)C(=O)Nc2ccccc2)O3)cc1
→ 17	8
31) COc1ccc2c3c([nH]c2c1)[C@@H](CO)N(C(=O)C1CCOCC1)CC31CN(Cc2cccc(F)c2)C1
→ -15	-23
32) C[C@@H]1CN([C@H](C)CO)C(=O)CCCn2nncc2CO[C@H]1CN(C)Cc1ccc2cccnc2c1
→ 8	0
33) C[C@H](CO)N1C[C@H](C)[C@H](CN(C)C)Oc2ccc(NC(=O)Nc3ccccc3)cc2CC1=O
→ -2	2
34) O=C(C1=C[C@H](C2CC2)C[C@H](OCCCCO)O1)N1CCOCC1
→ 12	15
35) C[C@H](CO)N1C[C@H](C)[C@@H](CN(C)S(=O)(=O)c2cccs2)Oc2ccc(NC(=O)c3ccncc3)cc2C1=O
→ 25	21
36) CCCC(=O)Nc1ccc2c(c1)C(=O)N(C)[C@H]1CC[C@H](CC(=O)Nc3ccccc3)O[C@H]1CO2
→ 11	8
37) C[C@@H]1CCCCO[C@H](CN(C)C(=O)NC2CCCCC2)[C@@H](C)CN([C@H](C)CO)C(=O)c2cc(NC(=O)Nc3ccc(F)cc3)ccc2O1
→ 22	14
38) COc1ccc(NC(=O)Nc2ccc3c(c2)C(=O)N([C@H](C)CO)C[C@@H](C)[C@H](CN(C)CC2CCCCC2)O3)cc1
→ -20	-13
39) C[C@@H]1CN([C@H](C)CO)S(=O)(=O)c2ccc(-c3ccc(C#N)cc3)cc2O[C@H]1CN(C)Cc1ccccn1
→ -35	-33
40) COc1ccc(NC(=O)Nc2ccc3c(c2)CC(=O)N([C@@H](C)CO)C[C@@H](C)[C@@H](CN(C)Cc2ccc(-c4ccccc4)cc2)O3)cc1
→ -21	-15
41) CC(C)NC(=O)N(C)C[C@@H]1Oc2ccc(NC(=O)NC3CCCCC3)cc2CC(=O)N([C@@H](C)CO)C[C@@H]1C
→ 4	3
42) Cc1ccc(S(=O)(=O)Nc2ccc3c(c2)C(=O)N([C@H](C)CO)C[C@H](C)[C@H](CN(C)S(=O)(=O)c2ccc(F)cc2)OCCCC[C@H](C)O3)cc1
→ -34	-25
43) C[C@@H]1CN([C@@H](C)CO)C(=O)CCCn2nncc2CO[C@H]1CN(C)C(=O)Nc1ccc(-c2cccs2)cc1
→ -3	0
44) C[C@H]1CN([C@@H](C)CO)C(=O)c2cccc(NC(=O)c3cnccn3)c2O[C@H]1CN(C)CC1CCCCC1
→ 15	10
45) C[C@H](CO)N1C[C@H](C)[C@H](CN(C)C(=O)NC2CCCCC2)Oc2ccc(NC(=O)Nc3ccccc3)cc2C1=O
→ 9	12

# New compounds follow
# Values run as follows: Vaccinia stage	Vaccinia stage Venus
46) C[C@@H]1CN([C@H](C)CO)C(=O)Cc2cc(N(C)C)ccc2O[C@@H]1CN(C)C(=O)Nc1ccc(C(F)(F)F)cc1
→ -16	-18
47) O=C(C[C@@H]1CC[C@@H]2[C@H](COC[C@H](O)CN2S(=O)(=O)c2cccc(F)c2)O1)NCCCN1CCOCC1
→ 12	8
48) COc1ccc(-c2ccc([C@@H]3[C@@H](CO)N4CCCCN(C(=O)c5ccc6c(c5)OCO6)C[C@H]34)cc2)cc1
→ -23	-40
49) C[C@@H]1CCCCO[C@@H](CN(C)C(=O)Cc2ccccc2)[C@H](C)CN([C@@H](C)CO)C(=O)c2cc(NC(=O)CCCN(C)C)ccc2O1
→ 10	0
50) COC(=O)C(CC#Cc1ccc2c(c1)[C@]1(C(=O)N2)[C@H](c2ccccc2OCCO)N2[C@H](c3ccccc3)[C@H](c3ccccc3)OC(=O)[C@H]2[C@@H]1C(=O)Nc1nc2ccccc2s1)C(=O)OC
→ 28	18
51) C[C@H]1CN([C@@H](C)CO)C(=O)c2cccc(NC(=O)c3cnccn3)c2O[C@@H]1CN(C)Cc1ccccc1
→ 2	6
52) C[C@@H]1CN([C@@H](C)CO)C(=O)c2cccc(NC(=O)c3cnccn3)c2O[C@@H]1CN(C)Cc1ccncc1
→ 19	6
53) COc1ccccc1CNC(=O)C[C@H]1CC[C@H](NC(=O)CN(C)C)[C@H](CO)O1
→ 1	1
54) CCS(=O)(=O)Nc1ccc2c(c1)C(=O)N(C)[C@H]1CC[C@H](CC(=O)NC3CCCCC3)O[C@H]1CO2
→ 18	18
55) COCC#Cc1cnc2c(c1)C(=O)N([C@@H](C)CO)C[C@@H](C)[C@@H](CN(C)C(=O)Nc1cccc(F)c1)O2
→ 10	-1
56) CCS(=O)(=O)Nc1ccc2c(c1)C(=O)N(C)[C@H]1CC[C@H](CC(=O)NC3CCCCC3)O[C@@H]1CO2
→ 0	1
57) C[C@H]1CN([C@@H](C)CO)C(=O)c2cc(NS(=O)(=O)c3ccc(Cl)cc3)ccc2O[C@H]1CN(C)Cc1ccc(-c2ccccc2)cc1
→ -19	-10
58) O=C(C[C@@H]1CC[C@H]2[C@@H](COC[C@H](O)CN2Cc2ccccc2)O1)NCCCN1CCOCC1
→ 14	11
59) C[C@@H]1CN([C@@H](C)CO)C(=O)c2cc(NC(=O)CCCN(C)C)ccc2O[C@H]1CN(C)S(=O)(=O)c1cn(C)cn1
→ 9	-1
60) C[C@H]1CCCCO[C@H](CN(C)Cc2ccc(Cl)c(Cl)c2)[C@@H](C)CN([C@@H](C)CO)C(=O)c2cc(NS(C)(=O)=O)ccc2O1
→ u	x
61) COCc1cn(CC[C@H]2CC[C@H](NC(=O)c3ccccc3)[C@H](CO)O2)nn1
→ 12	5
62) C[C@@H]1CN([C@H](C)CO)S(=O)(=O)c2ccc(C#Cc3cccnc3)cc2O[C@@H]1CN(C)C(=O)Nc1ccc2c(c1)OCO2
→ 4	16
63) COc1ccc(CN(C)C[C@H]2OCCCC[C@H](C)Oc3ccc(NC(=O)c4ccncc4)cc3C(=O)N([C@@H](C)CO)C[C@@H]2C)cc1
→ -8	12

# Screening results from PubChem.
